Screens deposited in PubChem by several laboratories.
B2AR ag = agonists of human beta-2 adrenergic receptor inducing internalization; response, % (no concentration beside the values); AID 504454; P07550; actives 0.43% (n = 340,000); Am2.2-beta2AR cells, FAP receptor internalization, flow cytometry; reference of the scale not given here;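 active = response above a set limit, near 3 SD of response in nonfluorescent compounds, cut at about 42% in these data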;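 note: stock transfer was 100 nL into about 11 µL; a reference agonist was the positive control; negative values mostly stem from fluorescent compounds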
A1 inh = inhibitors of the anti-apoptotic protein A1, read as caspase activation; MEF A1-2A-BIM cells, Caspase-Glo 3/7 luminescence, 3 h; percent of clofoctol response, vehicle zero; caspase activation, % (no concentration beside the values); actives 0.066% (n = 330,000); AID 2462;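 active = over half of replicate activation scores above 10%, or exactly half above 10 with the replicate mean above 10; inconclusive = replicate mean below 10 yet half the replicates above 10; inactive = over half of replicates below 10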;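 note: wells of about 30 µL received 50 nL stock; many hits fall short of the cut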
LANA-H2B inh = blocks KSHV LANA binding to histone H2A/H2B | Q9QR71 | cell-free LANA-H2A/H2B peptide, fluorescence polarization | inhibition, % (test concentration not listed) | actives 0.6% (n = 320,000); in the data active = inhibition mostly above about 10%, no sharp cut-off; inactive = mostly below about 6.7%;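 note: stock transfer was 7.5 nL into about 10 µL; 0% = median of vehicle wells and 100% = median of positive control wells; one replicate is shown; the record names a cut of 25% in any replicate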
Target sequence (Q9QR71 whole entry, looked up): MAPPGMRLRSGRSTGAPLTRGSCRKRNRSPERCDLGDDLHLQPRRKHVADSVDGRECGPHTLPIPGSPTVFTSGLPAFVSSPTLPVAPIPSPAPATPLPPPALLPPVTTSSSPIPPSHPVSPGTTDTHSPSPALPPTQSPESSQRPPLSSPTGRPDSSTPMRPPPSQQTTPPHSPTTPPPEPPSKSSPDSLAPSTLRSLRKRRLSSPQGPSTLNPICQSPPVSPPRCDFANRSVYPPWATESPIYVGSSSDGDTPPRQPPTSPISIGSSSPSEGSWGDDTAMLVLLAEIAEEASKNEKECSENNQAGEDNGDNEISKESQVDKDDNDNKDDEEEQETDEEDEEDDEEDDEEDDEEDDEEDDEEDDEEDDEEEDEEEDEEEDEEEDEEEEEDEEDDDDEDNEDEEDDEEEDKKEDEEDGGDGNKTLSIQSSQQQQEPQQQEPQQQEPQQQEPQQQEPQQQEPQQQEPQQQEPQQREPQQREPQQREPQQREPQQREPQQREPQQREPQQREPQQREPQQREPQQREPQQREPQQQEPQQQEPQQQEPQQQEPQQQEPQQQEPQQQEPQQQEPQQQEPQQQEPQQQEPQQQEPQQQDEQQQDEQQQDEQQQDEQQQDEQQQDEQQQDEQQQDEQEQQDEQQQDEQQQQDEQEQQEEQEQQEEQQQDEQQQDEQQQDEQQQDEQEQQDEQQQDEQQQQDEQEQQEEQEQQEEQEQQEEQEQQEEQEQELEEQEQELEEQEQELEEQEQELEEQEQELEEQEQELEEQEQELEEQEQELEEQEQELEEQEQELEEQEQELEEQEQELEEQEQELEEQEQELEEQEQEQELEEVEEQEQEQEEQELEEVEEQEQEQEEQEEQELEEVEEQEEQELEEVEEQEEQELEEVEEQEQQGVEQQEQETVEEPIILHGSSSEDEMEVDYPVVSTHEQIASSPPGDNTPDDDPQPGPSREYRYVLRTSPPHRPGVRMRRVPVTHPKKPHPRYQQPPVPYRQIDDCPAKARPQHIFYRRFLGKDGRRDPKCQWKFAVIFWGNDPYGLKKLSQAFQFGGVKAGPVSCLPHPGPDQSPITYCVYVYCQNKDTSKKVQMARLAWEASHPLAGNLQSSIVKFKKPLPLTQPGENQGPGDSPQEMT
T cruzi repl = T. cruzi replication inhibition; T. cruzi beta-gal in NIH3T3, luminescence, 90 h; inhibition, % (concentration not given with the values); actives 1.4% (n = 300,000); AID 1885;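 active = mean inhibition across valid replicates above about 55%, limit read from the data; inconclusive = mean below that limit but half or more replicates reach it; inactive = mean below it, under half of replicates reach it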;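 note: signal also drops with host cell toxicity which is not excluded here; 0% = plate median of DMSO wells and 100% = zero luminescence signal; higher percent means less beta-gal luminescence so fewer parasites; stock transfer was 50 nL into about 50 µL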
RanGTP-Imp inh = disruptors of Ran-importin-beta complex formation – biochemical, FRET, CFP-Ran, YFP-importin-beta, homogeneous, primary screen; inhibition, % (concentration not given with the values); actives 1.1% (n = 300,000); cell-free CFP-Ran/YFP-importin-beta FRET ratio;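 active = most replicates above 15%; inconclusive = exactly half above 15%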;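 note: 0% = DMSO wells and 100% = Ran loaded with GDP instead of GTP; wells of about 40 µL received 100 nL stock; the first replicate is given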
Beta apoptosis = beta cell apoptosis inhibition; actives 0.8% (n = 300,000); protection from apoptosis, % (concentration not given with the values); INS-1E cytokine-induced death, ATP luminescence, 48 h; percent of positive-control rescue, neutral wells zero; AID 435005;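 active = all replicates at 75% or more, or half of them and the mean; inconclusive = half reach 75% but not the mean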;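 note: 0% = cytokine-treated negative control wells and 100% = positive control rescue; higher means more ATP so stronger rescue from cytokine killing; wells of about 40 µL received 100 nL stock; the first replicate is given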
Calb FLC = affects C. albicans growth with fluconazole. C. albicans CaCi-2 (fluconazole-resistant clinical isolate) + fluconazole, Alamar Blue growth, 48 h. growth inhibition, % (test concentration not listed). actives 0.57% (n = 300,000). AID 1979;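 active = most replicates above 75%; inconclusive = exactly half above 75%; inactive = most below 75%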;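 note: all wells also contain fluconazole at 8 µg/ml as a sub-toxic cotreatment; 0% = median of DMSO wells and 100% = median of geldanamycin control wells; wells of about 8 µL received 7.5 nL stock; the first replicate is given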
UCH37 inh = blocks the human deubiquitinase UCH37 | purified proteasome/UCH37, Ub-AMC cleavage fluorescence | inhibition, % (test concentration not listed) | actives 0.33% (n = 330,000);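 active = mean of two replicates above 20%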;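 note: 0% = compound-free wells with enzyme and 100% = wells lacking proteasome; stock transfer was 100 nL into about 20 µL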
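Reagent: Ub-AMC substrate; assay system: Proteasome-associated human UCH37 deubiquitinase; controls: no-proteasome and no-compound wells; read-out: % inhibition of Ub-AMC cleavage fluorescence; timing: 30 min preincubation with enzyme, 25 min cleavage at room temperature; signal: AMC fluorescence from Ub-AMC cleavage, excitation 355 nm, emission 460 nm; buffer or medium: Tris-HCl pH 7.4 plus ovalbumin, ATP-MgCl2, DTT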
* hit, by the source's call; u = inconclusive; x = no result given. Compounds were not picked by outcome (roughly 4.3% active in at least one column).

SMILES	B2AR ag	A1 inh	LANA-H2B inh	T cruzi repl	RanGTP-Imp inh	Beta apoptosis	Calb FLC	UCH37 inh
COc1ccc(OCc2cc(C(=O)N3CCN(CC(=O)N(C)C)CC3)no2)c(Cl)c1	1	1.0	-5.1	-5	6.3	3	6	2.0
O=C(Nc1nccs1)C1CCCN1S(=O)(=O)c1cccc2cccnc12 (configuration not stated)	-4	1.0	-2.2	1	u	x	-2	0.8
COc1ccccc1NC(=O)Cn1cnc2c(oc3ccccc32)c1=O	-13	-0.4	-2.3	10	1.6	2	3	6.2
CN1CCN(C2CCCCC2NS(=O)(=O)c2ccc(Cl)cc2)CC1 (configuration not stated)	5	1.4	-6.2	-8	-2.7	-9	-6	-2.5
CC(=O)Nc1ccc(NC(=O)C2C3C=CC(C3)C2C(=O)O)cc1 (configuration not stated)	2	-0.4	2.4	-7	-4.7	5	3	1.0
Cc1ccc2c(c1)nnn2C1CCN(CC(=O)c2ccc(Cl)cc2)CC1	5	-0.1	-5.4	8	2.3	-2	-2	1.1
CC(C)CC(=O)NC1(C(F)(F)F)C(=O)N(CC(C)C)C2=C1C(=O)CC(C)(C)C2 (configuration not stated)	-1	1.3	4.0	-1	-1.7	x	5	6.0
O=C(NCCN1CCN(c2ccccc2)CC1)c1ccccc1F	1	-0.5	4.4	-7	2.8	-1	17	1.0
S=c1[nH]nc(C2CCCCC2)n1/N=C/c1cccs1	1	-0.1	1.0	-2	-0.6	-4	-4	x
O=C(Cn1nnc(-c2ccncc2)n1)NCCc1ccccc1	-1	1.3	-1.7	1	18*	3	-4	4.1
Cc1cccc(N2C(N)=NC(N)=NC23CCCCC3)c1	3	-0.3	-3.7	16	1.2	3	-3	2.9
CCCCC(CCC(=O)Nc1ccc(C(=O)OC)cc1)C(=O)O (configuration not stated)	0	-1.1	6.7	-6	-0.8	-3	0	0.4
O=C(O)c1ccc(N2C(=O)C3ON(c4ccccc4)C(c4ccccc4F)C3C2=O)cc1 (configuration not stated)	-14	-0.1	-8.1	-15	-0.8	2	0	7.4
CC1CCCCN1C(=O)Nc1cccc(C(F)(F)F)c1 (configuration not stated)	-10	2.0	2.7	5	3.2	-4	10	-0.4
Cc1ccc(N2C(=O)CN(Cc3cccs3)C2=S)cc1C	-1	1.4	0.1	3	-3.4	-3	-4	-0.2
CCCCNC(=S)NNC(=O)c1nn(C)c(C)c1Cl	-1	0.1	1.2	-2	u	-3	-24	-1.3
O=S1(=O)C[C@@H]2N=C(N/N=C/c3ccccc3)S[C@@H]2C1	-6	-0.1	4.2	-1	3.2	x	0	x
Cc1ccc(C(=O)Nc2nc(C)c(C(=O)N(C)C)s2)o1	34	-1.9	3.5	-6	3.7	15	0	4.1
C=CCNC(=O)c1onc(CSc2ccccc2C)c1C(=O)O	-5	-1.6	3.7	-6	2.4	-8	-14	-1.9
O=C(COC(=O)c1ccccc1O)Nc1cc(S(=O)(=O)N2CCCCCC2)ccc1Cl	-3	-0.6	-3.2	x	x	3	x	-10
Cc1cc(SCc2ccccc2Cl)nc(=O)[nH]1	7	0.4	3.7	-1	5.2	x	1	-0.8
CCn1nc(C)c(NC(=O)/C=C/c2ccc(OC)c(COc3ccc(Cl)cc3Br)c2)c1C	-2	0.0	2.8	55*	0.0	x	-9	5.7
Cc1ccc(NC(=O)CSCC(=O)NC2CCCCC2)cc1	-1	1.3	2.5	1	4.7	-2	-24	2.1
O=C(O)Cn1cnc2ccccc2c1=O	-4	-0.4	0.9	0	9.5	-2	0	3.1
CCN(CC)CC(=O)NN(Cc1ccccc1)c1ccccc1	5	0.2	6.5	4	1.6	-7	10	-0.5

Next part; it opens with the 2 that closed the last part.
SMILES	B2AR ag	A1 inh	LANA-H2B inh	T cruzi repl	RanGTP-Imp inh	Beta apoptosis	Calb FLC	UCH37 inh
O=C(O)Cn1cnc2ccccc2c1=O	-4	-0.4	0.9	0	9.5	-2	0	3.1
CCN(CC)CC(=O)NN(Cc1ccccc1)c1ccccc1	5	0.2	6.5	4	1.6	-7	10	-0.5
CCS(=O)(=O)N1CCN(CC(=O)NC2CCCCC2)CC1	-1	-0.2	0.8	-3	-5.0	-4	0	2.1
CCOC(=O)Cc1csc(NC(=O)c2c(O)c3ccccc3n(CC(C)C)c2=O)n1	7	-0.4	2.4	-18	0.0	31	4	1.4
CO/N=C/C(=N\Nc1ccccc1)C(=O)c1ccccc1	-17	0.7	3.3	28	u	-11	-2	x
CC1CCc2c(sc(NC(=O)c3ccc(Cn4cc([N+](=O)[O-])cn4)o3)c2C#N)C1 (configuration not stated)	6	-1.6	0.5	-2	9.5	6	3	-2.8
Cc1ccc2c(c1)nnn2C1CCN(S(=O)(=O)c2ccc3ccccc3c2)CC1	-2	-0.4	-6.0	11	-4.1	14	-4	2.5
CCCCOC(=O)n1c(=O)oc2ccccc21	7	-1.6	0.7	-10	7.1	2	42	3.3
COc1ccc(C)cc1S(=O)(=O)Nc1ccc2c(c1)N(C(C)=O)CCC2	12	0.3	-1.0	1	0.7	11	-7	0.2
COc1cc2c(cc1OC)[C@H](C)N(C(=S)Nc1ccc(F)cc1)CC2	-4	0.2	-2.2	-3	1.2	-2	7	-2.6
Cc1ccc(S(=O)(=O)N2CCC[C@H]2C(=O)OCC(=O)c2ccc3c(c2)NC(=O)CO3)cc1	7	0.1	-13	-9	-1.3	-10	-5	0.7
CCOc1ccccc1Nc1nc(N)nc(CSc2nccc(C)n2)n1	-6	1.3	-4.1	-4	6.9	-5	-4	1.5
CC(C)(C)c1ccc(CSc2ccc(S(=O)(=O)N3CCOCC3)cn2)cc1	4	-0.9	x	x	x	3	x	3.4
Cc1ccc(-c2cc(C(=O)Nc3cccnc3)c3ccccc3n2)s1	-2	-0.8	1.8	20	-0.3	10	-1	-213
C/C(=N\NC(=O)c1ccccc1N)c1ccc(NC(=O)Cc2ccccc2)cc1	-5	0.4	0.8	-7	8.0	2	3	x
CCOc1cc(CN2CCCCC2)ccc1OC	-5	0.4	2.5	15	-4.1	-3	-2	1.7
Cc1cc(C)c(S(=O)(=O)Nc2c(C)[nH]c(=O)[nH]c2=O)c(C)c1	3	0.6	0.3	3	1.3	1	0	1.5
COc1ccc(NC(=O)C2=C(C)NC(=O)NC2c2ccccc2[N+](=O)[O-])cc1 (configuration not stated)	-6	0.8	1.1	-20	4.6	-2	-5	2.8
Cc1cc(NS(=O)(=O)c2ccc(NC(=S)NC(=O)c3ccc(Cl)cc3Cl)cc2)no1	6	0.4	1.1	2	-4.9	x	13	4.0
COc1ccc(NC(=O)CN(C)S(=O)(=O)c2ccc(Br)s2)cc1OC	8	-0.9	6.5	1	-1.2	3	1	-0.2
O=C(COc1ccccc1)Nc1nnc(S(=O)(=O)N2CCCCC2)s1	0	-0.3	0.3	-1	1.4	3	-4	4.5
N#Cc1ccc(CSc2nnc(-c3ccccc3)n2Cc2ccco2)cc1	-5	-0.6	1.5	16	-4.3	9	2	0.2
CCOC(=O)Cn1c(=O)oc2cc(S(=O)(=O)NCC3CCCO3)ccc21 (configuration not stated)	-1	-0.8	-2.5	-7	0.8	-7	-6	5.3
O=C(c1ccc(S(=O)(=O)Nc2ccccc2F)cc1)N1CCCCCC1	1	0.3	3.5	-9	4.5	2	x	-0.7
COc1cccc(CNC(=O)C2CCN(S(=O)(=O)c3ccc4c(c3)CC(C)N4C(=O)C3CC3)CC2)c1 (configuration not stated)	-4	-0.3	-1.2	-3	-2.9	2	6	-0.8
O=C(c1ccccc1)C1CCN(C(=O)c2cccs2)CC1	3	-0.1	2.6	-8	2.2	-4	7	-0.3
Cc1nc2ccc(S(=O)(=O)NC(C(=O)N3CCC(C)CC3)C(C)C)cc2s1 (configuration not stated)	-6	-0.7	-0.3	10	4.3	x	-1	-1.0

The results go on.
SMILES	B2AR ag	A1 inh	LANA-H2B inh	T cruzi repl	RanGTP-Imp inh	Beta apoptosis	Calb FLC	UCH37 inh
O=C(CSC(=O)c1ccccc1)Nc1ccccc1F	1	0.3	-3.7	x	x	1	x	6.8
C/C(=N\NC(=O)c1cccs1)c1c(O)cc(C)oc1=O	-4	-1.2	1.8	-4	3.6	-6	-6	x
CC(=O)c1sc(NC(=O)COc2ccc(C(C)C)c(C)c2)nc1C	-3	0.0	-1.0	-18	0.4	-4	-5	5.2
Cc1cc2oc(=O)cc(CN3CCCCC3)c2cc1C(C)C	16	-0.1	1.0	18	-1.9	-3	3	-2.0
O=C(Nc1cccc([N+](=O)[O-])c1)N1CCN(c2ccccc2)CC1	1	0.6	6.2	-4	-2.0	4	3	-1.8
CC(=O)c1ccc(NC(=O)CN2C(=O)/C(=C/C=C/c3ccccc3)SC2=S)cc1	0	-1.4	1.7	12	-22	-7	-4	x
COc1ccc(-n2c3c(cc(C(=O)Nc4ccc(C)cc4)c2=O)C(=O)CCC3)cc1	-11	0.4	-2.5	x	x	x	6	-3.9
CCCCNC(=O)c1cc2c(=O)n(CC)c3ccccc3c2s1	3	-0.4	2.4	1	-2.4	2	-2	-24
CC(/C=C/c1ccc2c(c1)OCO2)=N/NC(=O)COc1ccc(C)cc1	-6	-0.2	3.0	-22	-1.4	1	-2	x
COc1cc(C(=O)CSc2nncn2C)cc(OC)c1OC	3	0.1	5.4	-15	1.9	1	-17	-2.0
COc1ccc(CNC(=O)c2cccc3c2C(=O)N(Cc2cccnc2)C3)cc1	-21	0.7	-3.0	15	-2.1	0	-2	0.9
COC(=O)c1cc2c(-c3ccccc3)cc3ccccn3c-2c1C(=O)OC	18	-0.6	-2.1	37	-1.2	-8	-12	3.2
COc1cccc(-c2nc3ccc(C(=O)N4CCCC(O)C4)cc3o2)c1 (configuration not stated)	13	-5.2	-2.3	-14	2.1	9	-40	1.0
COc1ccc(N2CCN(C(=O)c3ccc(CS(=O)Cc4ccc(Cl)cc4)o3)CC2)cc1 (configuration not stated)	2	2.8	-2.5	-13	-1.3	-2	-1	1.8
CN(C)c1ccc(C(CNC(=O)c2ccco2)N2CCCC2)cc1 (configuration not stated)	1	-0.4	0.7	11	3.9	-3	-3	-0.1
Cc1csc2c(N3CCN(C(=O)c4ccc(C(C)(C)C)cc4)CC3)ncnc12	4	-0.2	-2.2	-13	4.2	116*	20	3.5

Full records as entered above. Values in the order: B2AR ag, A1 inh, LANA-H2B inh, T cruzi repl, RanGTP-Imp inh, Beta apoptosis, Calb FLC, UCH37 inh
Listed for CN(C)c1ccc(C(CNC(=O)c2ccco2)N2CCCC2)cc1 (configuration not stated) = 1, -0.4, 0.7, 11, 3.9, -3, -3, -0.1
Listed for C/C(=N\NC(=O)c1cccs1)c1c(O)cc(C)oc1=O = -4, -1.2, 1.8, -4, 3.6, -6, -6, x
Listed for CC(=O)c1sc(NC(=O)COc2ccc(C(C)C)c(C)c2)nc1C = -3, 0.0, -1.0, -18, 0.4, -4, -5, 5.2
Listed for COc1ccc(N2CCN(C(=O)c3ccc(CS(=O)Cc4ccc(Cl)cc4)o3)CC2)cc1 (configuration not stated) = 2, 2.8, -2.5, -13, -1.3, -2, -1, 1.8
